gsp ag: gsp mutant agonism. gsp mutant cells, cAMP HTRF, 30 min; control for the full effect not named in the record. Potency, µM (titrated, usually from 76.9 µM), inactives show top-dose activation (cAMP increase), actives largely listed as activators. 340,000 tested, 0.13% active. AID 624287; active = well fitted activation curve with a large enough effect; inconclusive = small, poorly fitted or top-dose-only effect, or another doubt; inactive = no such curve, though single readings can be large or run the other way; cell line not stated here;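 further: phosphodiesterase inhibitor Ro 20-1724 added with compounds to block cAMP breakdown; potency means the concentration at half of the fitted maximal effect; nearly all actives have a fitted effect of over 60% in size; about a fifth of the inactives were tested at one dose only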
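Cells in DMEM/10% FBS with G418 were pretreated with compounds in DMSO plus […] (300 uM stock) for 30 min at 37C. cAMP was measured by HTRF (cAMP-d2 plus anti-cAMP antibody-K) after 30 min at room temperature.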
Menin MLL FP FL: menin-MLL binding inhibition, fluorescein peptide; FP activity change, % at 61.4 µM; Fluorescence polarization, fluorescein-MLL peptide displacement from menin; AID 1766; 290,000 tested, under 10 active; inconclusive = falling polarisation curve, or a change in total fluorescence; inactive = total fluorescence flat and polarisation flat or rising; no compound was filed as active; the % refers to the polarisation; negative = inhibition;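 further: % of control where 0% means no effect; inhibitors lower the polarisation; unlabelled MLL peptide was the positive control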
gsp antag: antagonists of gsp mutant (McCune-Albright syndrome); AID 624288; gsp-mutant cells, cAMP HTRF, 30 min; control for the full effect not named in the record; Potency, µM (doses to about 76.9 µM), for inactives: at the highest dose activity change, negative = inhibition, usual class: inhibitors; 340,000 tested, 0.4% active; active = falling curve of any shape with a large fitted effect; inconclusive = falling curve, mostly with a smaller effect; inactive = flat or rising curve; cell line not stated here;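 further: intracellular cAMP measured with PDE inhibitor Ro 20-1724 present during compound exposure; potency means the concentration at half of the fitted maximal effect; on the % scale 0 is the no-effect control and ±100 the full control effect; nearly all actives have a fitted effect of over 65% in size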
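HTRF cAMP read-out (cAMP-d2 plus anti-cAMP antibody-K in lysis buffer, 30 min RT). Before lysis, cells are exposed to compounds with […] for 30 min at 37C in DPBS containing Ca/Mg, BSA and Tween 20.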
D2 potentiator: positive allosteric modulators of human D2 dopamine receptor | P14416 | DiscoveRx D2 beta-arrestin cells, luminescence, 90 min; 100% = 57 uM dopamine signal | potentiation, % (concentration not given with the values) | 360,000 tested, 0.23% active; active = potentiation of 50% or more; inconclusive = 30% to 50%; inactive = 30% or less;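 further: compound concentration not given in the record; tested on top of an EC20 dose of dopamine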
Target sequence (P14416 whole entry, looked up): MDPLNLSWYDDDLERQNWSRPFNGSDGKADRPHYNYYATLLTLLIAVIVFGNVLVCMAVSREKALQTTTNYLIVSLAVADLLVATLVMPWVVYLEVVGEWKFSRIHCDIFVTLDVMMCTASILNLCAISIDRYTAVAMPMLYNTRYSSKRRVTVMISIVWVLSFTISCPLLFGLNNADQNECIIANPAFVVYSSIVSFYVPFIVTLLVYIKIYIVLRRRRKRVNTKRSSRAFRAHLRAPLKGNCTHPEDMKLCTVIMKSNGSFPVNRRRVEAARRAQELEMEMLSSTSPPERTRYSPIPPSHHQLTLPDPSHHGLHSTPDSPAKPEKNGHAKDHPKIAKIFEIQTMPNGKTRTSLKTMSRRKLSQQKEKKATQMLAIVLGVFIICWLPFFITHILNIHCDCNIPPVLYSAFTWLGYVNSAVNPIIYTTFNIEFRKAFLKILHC
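D2 cells co-treated with compound plus 50 nM dopamine (EC20) for 90 min at 37 deg C to detect potentiation. Beta-arrestin recruitment was read as enzyme-fragment luminescence after 1 h at ambient temperature. Full response was set by 57 uM dopamine.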
TRPV1 PAM: enhances activation of the human vanilloid receptor TRPV1 | potentiation, % at 8.33 µM | TRPV1-expressing cells, Fluo-8 calcium influx, capsaicin EC20 potentiation; host cell line not named in the record; control for the full effect not named in the record | Q8NER1 | 320,000 tested, 0.02% active | AID 540277; active means potentiation above 80%; inconclusive means 30% to 80%; inactive means below 30%; further: 0% is about no effect
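Fluo-8 calcium influx in TRPV1-expressing cells, kinetic read (ex 480/em 520 nm). Compound added and read 3 min for agonist activity, followed by capsaicin at EC20 final and 2 min further read for enhancement.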
Sfp inh: blocks B. subtilis Sfp PPTase activity; Q9F4F7; 310,000 tested, 3.5% active; Biochemical Sfp PPTase activity, qHTS; Potency, µM, inactives show max response, negative = inhibition, hits mostly inhibitors; active means well fitted inhibition curve with a large enough effect; inconclusive means small, poorly fitted or top-dose-only effect, or another doubt; inactive means no such curve, though single readings can be large or run the other way;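 further: the enzyme is Sfp with the accession as filed and its product quenches rhodamine fluorescence; potency means the concentration at half of the fitted maximal effect; 0% = enzyme reaction without inhibitor and -100% = no enzyme wells; top concentration of the series not given in the record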
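Fluorescence-quenching assay with 15 nM Sfp, 5 uM rhodamine-CoA and 12.5 uM BHQ-2-labelled ybbR peptide in pH 7.6 Hepes/MgCl2 buffer. Enzyme was pre-incubated with compound for 15 min at room temperature. Rate was taken from the 30-min fluorescence change (525/598 nm).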
ClpP mod: qHTS Assay for Activators of ClpP; ATP-dependent Clp protease proteolytic subunit (Bacillus subtilis (strain 168)), P80244; purified B. subtilis ClpP, FRET peptide cleavage, 20 min; Potency, µM (top dose mostly 57.5 µM), for the others: top-dose activity change, negative = active; 340,000 tested, 1.9% active; AID 651965, 2013; active = well fitted falling curve with a large enough effect; inconclusive = small, poorly fitted or top-dose-only effect; inactive = no such curve, though single readings can be large or run the other way; further: potency means the concentration at half of the fitted maximal effect; the source files actives as falling curves though it sought activators and does not explain the sign; nearly all actives have a fitted effect of over 65% in size; many hits overshoot -100%
Target sequence (P80244 whole entry, looked up): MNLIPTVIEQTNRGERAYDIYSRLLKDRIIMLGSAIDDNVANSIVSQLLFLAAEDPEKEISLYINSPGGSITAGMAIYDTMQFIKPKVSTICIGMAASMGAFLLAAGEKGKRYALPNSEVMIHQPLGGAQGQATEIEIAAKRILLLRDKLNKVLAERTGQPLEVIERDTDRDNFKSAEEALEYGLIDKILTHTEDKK
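ClpP 10 microg/mL final, pH 8 Tris/KCl buffer with BSA, glycerol, Tween-20; compound pinned in; FRET-FV substrate; RT 20 min; Ex320/Em430; ΔFRET vs ADEP 5.8 microM, DMSO, no enzyme.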
The depositor's hits bear a star; ? = inconclusive; . = no result given; & = joins results of further samples; [ ] = dose if it differs, or a comment.

SMILES	gsp ag	Menin MLL FP FL	gsp antag	D2 potentiator	TRPV1 PAM	Sfp inh	ClpP mod
Cc1ccc(C)c(N(CC(=O)NC2CCCC2)C(=O)CNC(=O)c2cccs2)c1	-22%	.	1%	-7	9	21%	.
O=C(Cn1cncn1)NCc1ccc(Cl)cc1	?	-0.5	12%	5	3	9%	-2.3%
CCS(=O)(=O)c1c([N+](=O)[O-])ncn1C	-22%	.	9%	-4	7	-2%	2.2%
COc1cc(/C=N/NC(=O)C(=O)NCc2ccco2)cc(Br)c1O	-1%[15.4 µM]	-1.5	-24%	-5	-12	-7%	.
CC1(c2ccccc2)O[C@@H]2C[C@H]3[C@@H]4CCC5=CC(=O)C=C[C@]5(C)[C@@]4(F)[C@@H](O)C[C@]3(C)[C@]2(C(=O)CO)O1 (stereo not given in full)	-12%[15.4 µM]	-5.2	-27%	3	-21	8%	.
CCOC(=O)CNC(=O)CSc1nnc(SCC(=O)NCC(=O)OCC)s1	25%	8.1	-1%	-1	9	?	-1.5%
COc1ccccc1NC(=O)NC1(C(=O)N2CCC(C)CC2)CCCCC1	-9%[15.4 µM]	-4.7	-2%	-4	-1	6%	0.0%
CCOC(=O)C1CCCN(Cc2cc(Br)c(OC)cc2OC)C1 (stereo not given)	-8%	6.2	-1%	-15	0	-21%	-0.8%
Cc1ccc(C(=O)N2CCN(c3ncccn3)CC2)cc1NC1=NC2CS(=O)(=O)CC2S1 (stereo not given)	?	-1.6	11%	-8	11	10%	-16%
COCCCNC(=O)c1cc2c(-c3ccc(Cl)cc3)nn(C)c2s1	-69%[inhibitor]	1.8	-7%	4	2	15%	4.5%
Cc1cc(S(=O)(=O)N2CCN(C(=O)CCC(=O)N3CCOCC3)CC2)ccc1Br	-3%	0.5	1%	-4	3	7%	-3.2%
Cc1ccc(NC(=O)C2CCN(S(=O)(=O)c3ccc4c(c3)CC(C)N4C(=O)C3CCC3)CC2)nc1 (stereo not given)	-51%[inhibitor]	0.8	-18%	-16	-3	17%	-1.4%
Cn1nnc(NC(=S)NC(=O)c2cccc3c(Cl)cccc23)n1	9%	.	-11%	-49	10	-10%	84%
CC(/C=N\NC(=O)CN1CCN(S(=O)(=O)c2ccc(C)cc2)CC1)=C\c1ccccc1	-29%	3.5	-18%	2	0	1%	0.7%
Cc1cccc(N2CC(O)=C(c3nc4ccccc4n3C)C2=N)c1	-7%	-1.3	7%	-10	14	0%	-4.7%
O=C(O)CCc1nn2c3ccccc3n(CC(=O)c3cccs3)c2nc1=O	?	-4.1	2%	2	3	4%	.
O=S(=O)(/C=C/c1ccccc1)N1CCOCC1	-18%	-0.6	1%	-1	-36	10%	0.3%
Cc1cccc(OCC(=O)Nc2ccccc2N2CCN(C)CC2)c1	-3%[15.4 µM]	1.3	12%	-14	-5	16%	?
COc1cccc(S(=O)(=O)Nc2ccc3sc(C)nc3c2)c1	13%	-4.2	?	-10	4	?	-0.9%
Cc1ccc2nc(-c3ccc(S(=O)(=O)N4CCCCC4)cc3)cn2c1	23%[15.4 µM]	6.5	0%	-7	-23	21%	.
CCNC(=O)c1c(O)c2cccc3c2n(c1=O)CC3	21%	2.8	31%[activator]	-4	-6	-2%	?
Cc1cc(C)n(-c2cc(N3CCOCC3)nc(-c3ccccc3)n2)n1	-33%[inhibitor]	3.2	-7%	2	-31	14%	-8.4%
COc1ccccc1CNC(=O)c1ccc2nc3[nH]c4ccccc4c3nc2c1	-12%	4.0	-3%	-12	4	-2%	0.3%
O=C1c2ccccc2C(=O)N1CC1=CCS(=O)(=O)C1	-10%	4.6	4%	2	6	4%	-1.9%
Cc1ccc2oc(=O)c(/C=C(\O)c3ccccc3)nc2c1	-34%[inhibitor]	0.9	-6%	5	19	?	-1.0%
COCC(=O)N(C)CC1CCCN(CCc2ccccc2OC)C1 (stereo not given)	-12%[15.4 µM]	-1.5	0%	-9	?	2%	-5.2%
O=C(CN1C(=O)C2C3C=CC(C3)C2C1=O)OCC(=O)c1ccc(Cl)c([N+](=O)[O-])c1 (stereo not given)	2%	.	-9%	-44	.	.	1.7%
CCOC(=O)C(NC(=O)c1ccc(F)cc1)(Nc1sc2c(c1C(N)=O)CCC2)C(F)(F)F (stereo not given)	3%	8.8	-9%	-6	-8	?	5.9%
O=C(c1cccs1)N1C[C@H](O)[C@@H](n2cc(-c3ccc(F)cc3)nn2)C[C@@H]1c1ccccc1	25%	.	.	-1	.	.	-0.7%
COc1cc(NC(=O)COC(=O)Cn2cnc3c2c(=O)n(C)c(=O)n3C)cc(OC)c1	?	.	9%	-2	-1	.	-2.6%
Cc1ccc(/C=C(\C#N)C(=O)Nc2cccc(C)n2)cc1	-39%[inhibitor]	5.1	0%	-34	-9	7%	10%
Nc1cc(Cl)ccc1C(=O)OCC(=O)NCC1CCCO1 (stereo not given)	7%	.	1%	-4	.	.	.
Cc1cc(Br)ccc1NC(=O)CNC(=O)CNc1cccc([N+](=O)[O-])c1	-2%	.	3%	-28	-1	.	1.0%
Cc1cccc(NC(=O)COC(=O)c2ccc3nc(C)c(C)nc3c2)c1	2%[15.4 µM]	.	7%	-18	.	.	-5.3%
O=C(Nc1ncccc1O)c1cccc(S(=O)(=O)N2CCCC2)c1	?	.	6%	13	-8	.	1.2%
CC(C)NC(=O)CCCc1ccccc1	-49%[inhibitor]	3.3	10%	-7	4	13%	-10%
CCN(CC)CCCNC(=O)c1cc(-c2ccc(O)cc2)on1	?	-1.8	5%	-8	.	11%	-0.5%
COc1ccc([C@H]2[C@H](C(=O)C(C)(C)C)N3N=Cc4ccccc4C3[C@]23N=C(c2ccccc2)OC3=O)cc1 (stereo not given in full)	23%	4.6	-14%	?	15	-1%	-1.9%
Cc1ccc(CN2C3=NCCN3c3ccccc32)cc1	-8%[15.4 µM]	-1.0	14%	-2	0	23%	.
O=[N+]([O-])c1ccccc1OCCCN1CCc2ccccc2C1	-17%	4.1	5%	-26	9	16%	.

Nothing new here: an excerpt of the list.
SMILES	gsp ag	Menin MLL FP FL	gsp antag	D2 potentiator	TRPV1 PAM	Sfp inh	ClpP mod
CCNC(=O)c1c(O)c2cccc3c2n(c1=O)CC3	21%	2.8	31%[activator]	-4	-6	-2%	?
Cc1cc(C)n(-c2cc(N3CCOCC3)nc(-c3ccccc3)n2)n1	-33%[inhibitor]	3.2	-7%	2	-31	14%	-8.4%
COc1ccccc1CNC(=O)c1ccc2nc3[nH]c4ccccc4c3nc2c1	-12%	4.0	-3%	-12	4	-2%	0.3%
O=C1c2ccccc2C(=O)N1CC1=CCS(=O)(=O)C1	-10%	4.6	4%	2	6	4%	-1.9%

Part of the list above, in markdown.
| Compound | gsp ag | Menin MLL FP FL | gsp antag | D2 potentiator | TRPV1 PAM | Sfp inh | ClpP mod |
| --- | --- | --- | --- | --- | --- | --- | --- |
| CCN(CC)CCCNC(=O)c1cc(-c2ccc(O)cc2)on1 | ? | -1.8 | 5% | -8 | . | 11% | -0.5% |
| Cc1cc(C)n(-c2cc(N3CCOCC3)nc(-c3ccccc3)n2)n1 | -33%[inhibitor] | 3.2 | -7% | 2 | -31 | 14% | -8.4% |

The list goes on.
SMILES	gsp ag	Menin MLL FP FL	gsp antag	D2 potentiator	TRPV1 PAM	Sfp inh	ClpP mod
CC(C)(C)c1nc2ccccc2c2nnc(SCC(=O)NCc3ccco3)n12	-2%	2.7	-19%	-13	-10	-9%	-0.3%
COc1ccc([N+](=O)[O-])cc1NC1C2CC3CC(C2)CC1C3 (stereo not given)	-7%	3.3	-12%	-10	18	-10%	3.3%
CSc1ccc(CN(C)C(=O)c2cccc(S(=O)(=O)N3CCN(Cc4ccccc4)CC3)c2)cc1	1%[15.4 µM]	.	-16%	1	12	.	0.2%
CNC(=O)c1cc(S(=O)(=O)N2CC(C)OC(C)C2)ccc1N1CCOCC1 (stereo not given)	-3%[15.4 µM]	2.5	2%	0	9	20%	37%
CCCC(=O)n1nc(-c2cccnc2)nc1NCc1ccc(OC)cc1	-21%[15.4 µM]	-0.4	?	-1	-7	-20%	-9.4%
COc1ccc(NC(=O)CN(C)CC(=O)NC(=O)NC2CCCCC2)cc1	-4%	.	1%	-9	-6	.	0.0%
COc1ccc(-c2nn(-c3ccccc3F)cc2CNCCn2nc(C)cc2C)cc1	-49%[inhibitor]	0.1	-12%	-14	-7	16%	-2.9%
CN(C(=O)c1cccc(NC(=O)Cc2cccc(NC(=O)C3CCN(S(=O)(=O)c4cccc([N+](=O)[O-])c4)CC3)c2)c1)C1CC1	.	.	4%	5	.	.	0.8%
Cc1cccc(OCC(=O)O/N=C(\N)c2ccncc2)c1	2%	-1.6	14%	-5	0	10%	.
COc1ccc(-c2c(C)c3ccc(OCC(C)=O)cc3oc2=O)cc1	.	5.2	.	.	3	4%	.
S=C(NCCc1cnc[nH]1)NC1CCCC1	-96%[inhibitor]	-2.4	9%	-11	5	5%	0.3%
COc1ccccc1N1CCN(S(=O)(=O)CCNC(=O)c2cc(=O)c3ccccc3o2)CC1	7%	6.4	-10%	-17	19	15%	-1.0%&1.6%
O=C1COCCOCCOCC(=O)NCCN1	?	0.8	4%	-1	?	6%	.
COC(=O)[C@H](CCSC)NC(=O)Nc1ccc(OC)c(Cl)c1	-52%[inhibitor]	4.6	3%	-14	7	16%	-2.1%
Cc1cccc(NC(=O)c2cc(C)nc3ccccc23)c1	15%	-3.7	3%	-2	-9	17%	-0.4%
C[C@H](NS(=O)(=O)c1ccc2c(c1)OCCCO2)C(=O)N1CCN(Cc2ccc(C#N)cc2)CC1	15%	.	11%	-4	4	.	-3.1%
Cc1cc(NC(=O)CCC(=O)N(c2cccnc2)C(C(=O)NC2CCCC2)c2ccccc2F)no1 (stereo not given)	?	3.0	8%	-13	2	18%	1.1%
COc1cccc(CNC(=O)CCCN2C(=O)C(c3ccccc3)Oc3cccnc32)c1OC (stereo not given)	-2%	3.7	-21%	2	-9	6%	-2.5%
COc1cc(C(C)=O)ccc1OCC(O)Cn1nc(C)c(Br)c1C (stereo not given)	-22%	1.8	7%	1	-13	7%	.

Screens: PubChem BioAssay, National Center for Advancing Translational Sciences (NCATS)
